miR-21 FLuc: miR-21 reporter, rising signal | HeLa miR-21 FLuc reporter, luciferase, 48 h | Potency, µM (titrated, usually from 38.3 µM), for inactives: at the highest dose reporter change, positive = more light | 340,000 tested, under 10 active; active = well fitted rising curve with a large enough effect; inconclusive = small, poorly fitted or top-dose-only effect; inactive = no such curve, though single readings can be large or run the other way;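 also: % of control where 0% means no effect; miR-21 action dims this reporter so a rising signal means less miR-21 action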
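HeLa cells endogenously expressing miR-21, stably carrying CMV-driven firefly luciferase with a downstream miR-21 binding site, 2000 cells/well. Titrations up to approximately 40 uM, 48 hours; luciferase luminescence read.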
Rango-impB inh: Rango-importin beta binding inhibition; 340,000 compounds, 0.031% hits; Q14974; AID 540263; Potency, µM (titrated, usually from 92.2 µM), without a hit: top-dose inhibition of complex formation; Rango CFP/YFP FRET sensor + importin beta, 45 min; active = rising FRET ratio curve, often small or poorly fitted; inconclusive = mostly compound fluorescence or quenching in the first reads; inactive = flat curves in all reads;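 also: potency is read from the fitted curve at half-maximal effect; 0% = DMSO wells and 100% = buffer wells lacking importin beta; nearly all actives have a fitted effect of over 15% in size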
Target sequence (Q14974 whole entry, looked up): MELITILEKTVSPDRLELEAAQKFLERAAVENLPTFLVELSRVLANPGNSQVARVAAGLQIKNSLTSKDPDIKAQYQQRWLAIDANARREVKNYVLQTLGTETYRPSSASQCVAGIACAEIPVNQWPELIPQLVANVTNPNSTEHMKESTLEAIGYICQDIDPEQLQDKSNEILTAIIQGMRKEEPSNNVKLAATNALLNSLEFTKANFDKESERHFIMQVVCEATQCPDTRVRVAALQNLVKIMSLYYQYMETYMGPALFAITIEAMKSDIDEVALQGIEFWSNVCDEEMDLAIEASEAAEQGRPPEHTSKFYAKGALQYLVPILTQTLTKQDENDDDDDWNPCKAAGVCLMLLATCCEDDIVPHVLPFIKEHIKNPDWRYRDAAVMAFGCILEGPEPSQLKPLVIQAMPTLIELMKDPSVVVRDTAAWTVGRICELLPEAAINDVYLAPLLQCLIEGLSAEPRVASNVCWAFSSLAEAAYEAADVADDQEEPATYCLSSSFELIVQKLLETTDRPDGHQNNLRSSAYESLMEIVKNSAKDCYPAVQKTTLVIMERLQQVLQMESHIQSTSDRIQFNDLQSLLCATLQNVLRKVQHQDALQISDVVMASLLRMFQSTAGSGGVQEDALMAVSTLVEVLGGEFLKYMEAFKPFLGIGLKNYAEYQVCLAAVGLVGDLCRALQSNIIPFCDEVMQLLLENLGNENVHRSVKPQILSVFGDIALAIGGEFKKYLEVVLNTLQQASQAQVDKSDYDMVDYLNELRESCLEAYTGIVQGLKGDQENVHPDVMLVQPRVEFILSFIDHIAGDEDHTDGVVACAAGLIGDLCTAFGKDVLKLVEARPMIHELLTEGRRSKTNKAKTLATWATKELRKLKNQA
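FRET biosensor Rango (snurportin 1 IBB between N-terminal EYFP and C-terminal Cerulean), 50 nM in PBS/1 mM DTT/0.02% Tween-20/0.1% BSA, preincubated 5 min RT with compound; 0.125 microM importin beta added, 45 min RT, CFP/YFP FRET ratio read.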
GLA inh pH 4.5: blocks human alpha-galactosidase A at pH 4.5 | P06280 | purified enzyme, 4-MU-alpha-Gal fluorescence, pH 4.5 | activity change, negative = inhibition, % at 105 µM | 230,000 tested, under 10 active | AID 1467; inconclusive = small, poorly fitted or top-dose-only inhibition, or a rising curve; inactive = flat fitted curve, though single readings scatter; no compound was filed as active;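 also: 0% = full activity with enzyme and -100% = basal without enzyme; dose as in the result columns while the protocol names 77 µM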
Rango release inh: inhibitors of RanGTP-induced Rango-importin beta complex dissociation. AID 540253. Biochemical FRET Rango-importin beta, RanGTP-induced dissociation. Potency, µM (top dose mostly 46.1 µM), without a hit: at the highest dose activity change, negative = inhibition. O95149+P62826. 340,000 compounds, 0.071% hits; active means falling FRET ratio curve, often poorly fitted, with flat reads before Ran was added; inconclusive means other falling curves, or compound fluorescence or quenching; inactive means flat or rising ratio curve;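 also: potency is read from the fitted curve at half-maximal effect; % of control where 0% means no effect; nearly all actives have a fitted effect of over 45% in size; -100% = wells without RanGTP and RCC1; the record marks most hits as doubtful in a second field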
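Two FRET readings bracket the reaction: one 5 min after compound meets Rango–importin beta, another 45 min after RanGTP-RCC1 (0.6 uM Ran, 0.2 uM RCC1, 2 mM GTP) is added. Only the second defines inhibition.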
Starred values were filed as active, the others as inactive; ? = inconclusive; / = no result given; & = joins results of further samples.

Preview:
Every second line gives: miR-21 FLuc	Rango-impB inh	GLA inh pH 4.5	Rango release inh
COc1ccc(NC(=O)CC2C(=O)N(c3cccc(OC)c3)C(=O)N2Cc2ccco2)cc1 (stereo unspecified)
    11.8%	1.6%	1.6	-12.3%
COCC(=O)Nc1ccc(S(=O)(=O)NCC2CCCO2)cc1 (stereo unspecified)
    -0.5%	1.0%	/	7.9%
Cc1nn(-c2ccccc2)c(N)c1C1(O)C(=O)N(C(C)C)c2ccccc21 (stereo unspecified)
    -1.3%	1.1%	-4.5	-13.7%

All compounds of this part, previewed entries included:
Every second line gives: miR-21 FLuc	Rango-impB inh	GLA inh pH 4.5	Rango release inh
COc1ccc(NC(=O)CC2C(=O)N(c3cccc(OC)c3)C(=O)N2Cc2ccco2)cc1 (stereo unspecified)
    11.8%	1.6%	1.6	-12.3%
COCC(=O)Nc1ccc(S(=O)(=O)NCC2CCCO2)cc1 (stereo unspecified)
    -0.5%	1.0%	/	7.9%
Cc1nn(-c2ccccc2)c(N)c1C1(O)C(=O)N(C(C)C)c2ccccc21 (stereo unspecified)
    -1.3%	1.1%	-4.5	-13.7%
O=C(Nc1ccc(Cl)c(C(F)(F)F)c1)c1ccncc1
    2.0%	1.6%	-7.5	-0.1%
O=C1C(=O)N(c2ccccn2)C(c2cccc([N+](=O)[O-])c2)/C1=C(/O)c1ccc(Br)cc1 (stereo unspecified)
    -3.4%	0.2%	/	11.2%
Cc1cc(C)cc(N(CCC#N)C(=O)CSc2nc3ccccc3c(=O)[nH]2)c1
    /	3.4%	/	-10.4%
CN(C)C(CNC(=O)CCNS(=O)(=O)c1ccccc1C(F)(F)F)c1ccccc1 (stereo unspecified)
    /	-0.6%	/	-8.8%
Cc1c(N(C)CS(=O)(=O)O)c(=O)n(-c2ccccc2)n1C
    /	0.0%	0.3&5.9	-6.0%
Cc1ccc(Cn2c(C3CCCN3c3nc(-c4ccc(F)cc4)cs3)nc3cc(Cl)c(Cl)cc32)cc1 (stereo unspecified)
    /	-1.5%	/	-0.6%
O=S(=O)(c1ccccc1)N1CCN=C1SCc1cccc(Cl)c1
    -14.9%	5.5%	-12.9	-4.0%
O=C(CNC(c1ccccc1)c1ccccc1)Nc1ccccc1F
    -5.6%	-5.1%	/	29.9%
CCCOC(=O)c1ccc(NC(=O)CCC(=O)OCC)cc1
    -36.2%	?	-1.9	-2.2%
O=C(Cc1cccs1)N1CCN(S(=O)(=O)c2cc(Cl)ccc2Cl)CC1
    /	-0.1%	/	3.6%
COc1ccc(C2C(C(=O)OC(C)C)=C(C)N=c3s/c(=C\c4cccs4)c(=O)n32)cc1 (stereo unspecified)
    -1.8%	4.7%	-4.3	-13.6%
O=C1[C@@H]2[C@H](C(=O)N1n1cnnc1)[C@H]1C=C[C@@H]2C1
    -0.8%	1.5%	6.0	2.1%
Cc1cc(C)nc(NS(=O)(=O)c2ccc(NC(=S)NC(=O)C(C)(C)C)cc2)n1
    -7.0%	-0.3%	-14.4	4.6%
COCCNC(=S)N1CCN(c2nc(-c3ccc(F)cc3)cs2)CC1
    4.8%	-0.9%	/	4.0%
CCN1C(=O)[C@@H]2[C@@H](c3ccc(-c4ccc(Cl)c(Cl)c4)c(OC)c3)N3CCCC[C@@]3(C(=O)OC)[C@@H]2C1=O
    /	-9.1%	/	-10.4%
Cc1cccc(NC(=O)c2nc[nH]c2C(=O)Nc2cccc(C)c2)c1
    0.3%	-0.3%	10.2	6.3%
Cc1ccc(C(=O)Oc2ccccc2C(=O)N2CCOCC2)cc1
    -3.2%	-1.2%	1.4	1.7%
C/C(=C1/SC(N2CCCC2)=NC1=O)c1ccc(Br)cc1
    -1.1%	-0.3%	-7.0	3.4%
Cc1cccc(C)c1-n1c(C)cc(/C=N/NC(=O)c2ccncc2)c1C
    -5.8%	0.4%	3.2	14.0%
COc1cc(C(C[N+](=O)[O-])c2c(C)[nH]c3ccccc23)cc(OC)c1OC (stereo unspecified)
    12.0%	-2.5%	-19.9	-13.7%
O=C(COC(=O)Cc1ccc(Br)cc1)NC1CC1
    /	-1.1%	/	5.2%
O=C(/C=C\c1ccc(-c2ccccc2)o1)c1ccccc1
    -59.3%	?	0.8	?
COc1cc(/C=C\C(=O)O)cc(S(=O)(=O)N2CCCCCC2)c1OC
    -8.1%	3.5%	/	-0.6%
CSCCC(NC(=O)c1ccccc1Br)C(=O)N1CCCCCCC1 (stereo unspecified)
    /	-2.5%	/	8.2%
N#CCSc1n[nH]c2nc3c(c(=O)n12)C1(CCCC1)Cc1ccccc1-3
    -5.6%	?	23.4	2.7%
O=C(NCCNC(=O)c1cccnc1)c1ccc(Br)cc1
    -1.7%	-0.3%	/	-0.1%
O=C(c1cccs1)N1CCN(c2nnc(-c3ccccc3)c3ccccc23)CC1
    14.8%	-0.8%	1.7	-2.5%
CCOC(=O)CC(=O)Nc1ccsc1C(N)=O
    -0.3%	-0.2%	8.0	-10.0%
CCOC(=O)C1=C(C)Nc2nnnn2C1c1c[nH]c2ccccc12 (stereo unspecified)
    1.4%	/	-2.7	/
CC12CC3(C)CC(C)(C1)CC(C(=O)NCC(=O)O)(C2)C3
    -0.9%	0.3%	7.7	-4.7%
CSCCC(=O)N1CCC(n2nccc2NC(=O)CCc2ccccc2)CC1
    3.5%	0.4%	/	0.0%
O=C1CN(C(=O)c2ccccc2Cl)c2ccccc2N1
    1.5%	1.9%	/	5.4%
COc1ccc(-c2nc(C#N)c(NCCCN(C)C)o2)cc1OC
    -20.7%	0.3%	3.9	13.1%
C/C(=N\NC(N)=O)c1cc(Cl)cc(Cl)c1O
    5.1%	?	5.5	?
CC(=O)Nc1ccc(OCC(=O)N2CCC(Cc3ccccc3)CC2)cc1
    7.0%	0.9%	-8.1	-4.0%
CC(C)N1CCc2c(sc(NC(=O)c3ccc(S(=O)(=O)N(C)CC4CCCO4)cc3)c2C(N)=O)C1 (stereo unspecified)
    1.7%	?	/	?
CCN(CC)C(=O)CSc1nnc(-c2ccc(F)cc2)n1N
    -11.3%	?	0.0	21.7%
CC(=O)Nc1ccc(NC(=O)CN(C)S(=O)(=O)c2ccc3nc(C)sc3c2)cc1
    -5.5%	0.6%	-1.2	-15.3%
CCOC(=O)C1CCN(Cc2ccc(F)cc2F)CC1
    -1.0%	0.0%	-2.5	1.3%
COc1ccc(-c2noc(CSc3nc(-c4ccccc4)cc(=O)[nH]3)n2)cc1
    1.4%	-1.0%	-15.9	3.6%
CC1(c2ccco2)NC(=O)NC1=O (stereo unspecified)
    0.2%	-2.8%	2.0	9.0%
Cc1nc2ccccc2n1/N=C/c1cccnc1
    0.2%	4.0%	4.3	18.0%
O=C1CCCc2c1nc(-c1ccc(F)cc1)n2O
    -1.0%	2.8%	3.4	-2.8%
Cc1c(Cl)cn2c(=O)cc(CN(C)Cc3nc4ccccc4c(=O)[nH]3)nc2c1Cl
    -0.4%	/	10.2	/
O=C(c1ccccc1)N1CCN(C(=O)c2ccccc2)C1c1ccccc1
    -1.0%	0.5%	5.6	1.8%
CN(Cc1ccccc1)S(=O)(=O)c1ccc(Cl)c(C(=O)NCCCN2CCCC2=O)c1
    /	-0.2%	/	-13.9%
CN(C)c1ccc(/C=N/NC(=O)CNC(=O)c2ccncc2)cc1
    -5.9%	-0.4%	/	-28.4%
CCOC(=O)c1cnc2c(C(=O)OC)cccc2c1NCc1cccnc1
    -2.1%	3.4%	5.7	?
COc1ccc(N2C(=O)CN=C2Nc2cccc(C)c2C)cc1OC
    -11.5%	1.9%	-8.7	-4.9%
Cc1c(C(=O)c2ccc(N(C)C)cc2)c2ccccn2c1CCC#N
    -29.8%	?	-10.0	-27.0%
CCC(Sc1nccn1C)C(=O)Nc1nnc(C)s1 (stereo unspecified)
    -0.7%	-4.9%	4.4	12.8%
O=C(Cc1ccc(S(=O)(=O)N2CCOCC2)s1)Nc1cc(C(F)(F)F)ccc1N1CCCC1
    /	-3.0%	/	-24.3%
Cc1cc(C)c(C(=O)c2cccs2)c(C)c1
    /	0.5%	/	38.7%
C[C@H]1NC(=O)[C@@]2(C)[C@H](c3ccccc3)[C@H]3COc4ccccc4[C@@H]3N2C1=O
    /	0.7%	/	3.8%
Cc1ccc(C)c(/C(O)=C2\C(=O)C(=O)N(CCCN3CCOCC3)C2c2cccnc2)c1 (stereo unspecified)
    -1.5%	0.3%	?	-4.6%
COc1ccc(Oc2nccc(-c3ccc(F)cc3)c2C#N)cc1
    -16.0%	8.6%	5.5	-14.5%
CC1CN(CCCCSc2ccc(Cl)cc2)CC(C)O1 (stereo unspecified)
    -2.7%	-1.0%	/	-0.5%

The list continues:
Every second line gives: miR-21 FLuc	Rango-impB inh	GLA inh pH 4.5	Rango release inh
Cc1c(NC(=O)COc2ccc3ccccc3c2)c(=O)n(-c2ccccc2)n1C
    12.9%	2.2%	/	3.8%
CN(Cc1ccccc1)C(=O)c1ccccc1C(=O)O
    -2.8%	0.3%	-2.7	0.1%
CCc1ccccc1NC(=O)N[C@@H](C)C(=O)O
    -1.8%	-2.7%	6.4	-15.6%
Cc1ccc(C(=O)C2CCN(C(=O)c3ccc(C)cc3)CC2)cc1
    6.3%	2.0%	/	2.3%
C#CC(C)(CC)NC(=O)c1cc2cccc(CC=C)c2oc1=O (stereo unspecified)
    -3.2%	?	2.5	?
CCCCOc1ccc2c(C)cc(=O)oc2c1OCCCC
    0.5%	-3.3%	-26.5	4.3%
Cc1ccc(CNC(=O)c2ccc(NC3=NC4CS(=O)(=O)CC4S3)cc2)cc1 (stereo unspecified)
    -2.6%	1.4%	/	?
CN(C)S(=O)(=O)c1cccc(NC(=O)COC(=O)CCC(=O)c2ccc(F)cc2)c1
    2.0%	?	6.0	-7.3%
Fc1ccc(NCc2ccccc2F)cc1Cl
    -4.4%	-0.5%	7.7	-5.7%
COc1cc(CNc2ccc(N3CCCC3)cc2)ccc1OCc1ccccc1
    -36.1%	0.6%	4.9	-13.8%
C=CCC1CCCC(=O)N2CCCC12 (stereo unspecified)
    /	0.2%	-8.7	7.6%
Cc1nn(C)cc1CN(C)Cc1c(C(=O)N(C)Cc2ccccc2)nc2ccccn12
    -0.5%	3.3%	6.9	7.1%
O=C(Nc1ccc2oc(=O)ccc2c1)c1cc2ccccc2o1
    -54.1%	-1.5%	4.1	-15.2%
CN1CCN(S(=O)(=O)c2cccc(C(=O)Nc3cc(Cl)ccc3N3CCOCC3)c2)CC1
    /	-0.9%	/	-1.1%
COc1cccc2[nH]c(C(=O)NN)c(N)c12
    11.7%	?	-8.7	-16.5%
Cc1cccc(C(=O)N/N=C/c2coc3ccccc3c2=O)c1
    2.6%	0.1%	/	8.4%
Cc1cc(NC(=O)c2ccc(Cl)cc2)n(CCC#N)n1
    -2.8%	-2.3%	/	-8.1%
CC(=O)c1ccc(N2CCN(C(=O)Nc3ccc(C)cc3)CC2)cc1
    7.3%&0.2%	-0.7%	-4.4	-5.8%
CCOC(=O)C(C(=O)OCC)C(c1ccccc1)N1CCN(c2ccccc2)CC1 (stereo unspecified)
    /	0.5%	/	-12.0%
CCOc1c(CNCCN2CCOCC2)cccc1OC
    -5.1%	0.2%	0.2	0.3%
COc1cc(C(=O)N2CCN(C(=O)C3CC3)CC2)cc(OC)c1OC
    -3.5%	-1.1%	8.6	1.8%
O=C(/C=C/c1ccc(Cl)cc1Cl)Nc1ccc(CN2CCOCC2)cc1
    0.7%	-0.1%	-14.4	3.1%
CCc1noc(C)c1C(=O)OCC(=O)Nc1ncc(Cl)cc1Cl
    -3.1%	1.1%	/	1.6%
COc1ccc(C(CC(=O)N2CCCCC2)c2c(OC)cc(OC)c3ccc(=O)oc23)cc1 (stereo unspecified)
    -13.4%	-0.7%	2.0	-13.0%
CC1SC2(NC1=O)C1CC3CC(C1)CC2C3 (stereo unspecified)
    -3.1%	4.2%	3.5	-4.3%

The list is partial, so the mix of outcomes need not match the whole.
